Sa RN4220 lethal: growth inhibition of S. aureus RN4220, primary screen, OD600; 16 h; inhibition, % (concentration not given with the values); hit rate 0.33% among 330,000;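 active = z-score of -3 or lower and OD600 up to 0.18 on both plates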;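 also: plate controls were untreated cells for no effect and reference antibiotic for full effect; stock transfer was 100 nL into about 80 µL; one replicate is shown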
Mtb hypoxia inh: PubChem AID 1159583; M. tuberculosis hypoxia-regulated fluorescent reporter, fluorescence; hit rate 0.1% among 300,000; fluorescence inhibition, % (no concentration beside the values);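 active = 35 to 45% if threefold the growth effect, above 45% if 1.5-fold the growth effect; inactive = the rest, general growth blockers included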;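 also: wells of about 50 µL received 100 nL stock; 0% = vehicle wells and 100% = reference inhibitor wells; whole bacteria with a GFP reporter of the hypoxia response; strong numbers were not always called active; many hits fall short of the cut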
PrP UTR inh: inhibition of PrP 5' UTR reporter expression; cell-based PrP 5' UTR mRNA reporter, plate reader; inhibition, % (no concentration beside the values); hit rate 0.35% among 340,000; AID 488862, 2010;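 active = every replicate at 50% or more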;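 also: 0 = median of the neutral control wells; tested in H4 reporter cells; numbers are from one replicate; inactives centre near -14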
Bead autofluor: flagged as autofluorescent in microsphere protease counterscreen | compound autofluorescence counterscreen, microsphere flow cytometry; hits give high values | fluorescence intensity (test concentration not listed) | hit rate 3.1% among 360,000 | AID 624483;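 active = at least 3 SD above the mean of all compounds, about 16000 in these data; inconclusive = too few beads counted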;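 also: 100 nL of 1 mM stock went into each well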
ugtP null kill: growth inhibition of ugtP-null S. aureus, primary screen, RN4220 ugtP deletion, OD600 | 16 h; some inactives read as strong as hits | growth inhibition, % (no concentration beside the values) | hit rate 0.54% among 330,000;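 active = z-score under -3 and OD600 up to 0.15 on both plates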;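 also: plate controls were untreated wells for no effect and antibiotic for full effect; wells of about 80 µL received 100 nL stock; the first replicate is given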
BJeLR viability: MLPCN primary cell-based screen for lethality selective to Ras in HRASV12 cells. BJeLR (HRASV12) viability, CellTiter-Glo ATP luminescence, 48 h; reference of the scale not given here. inhibition, % (no concentration beside the values). hit rate 0.17% among 300,000. AID 1554, 2009;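 active = replicate mean above 50%; inconclusive = above 50% but judged a plate artefact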;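 also: 50 nL library stock added to about 25 µL; numbers are from one replicate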
Mtb hypoxia inh growth: further read-out of Mtb hypoxia inh, marked with its call; growth inhibition, %; measured here: M. tuberculosis growth (absorbance);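 0% = vehicle and 100% = reference antibiotic; read after six days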
Active calls of the source: *; ? = inconclusive; · = not tested or not shown; & = joins results of further samples. Not a hit list; 4% or so of the library scored in one or more.

SMILES	Sa RN4220 lethal	Mtb hypoxia inh	Mtb hypoxia inh growth	PrP UTR inh	Bead autofluor	ugtP null kill	BJeLR viability
S=C(NCCCN1CCOCC1)NCCCN1CCOCC1	2.8	16	5	-6	1964	4	7
COc1ccccc1S(=O)(=O)Cc1ccc(C(=O)NCc2ccc(C)cc2)o1	2.0	11	1	-10	5532	-1	0
O=[N+]([O-])c1ccc(OCCO)nc1	-0.9	8	-4	-10	4642	9	5
CCC1CCc2c(sc(NC(C)=O)c2C#N)C1 (stereo not drawn)	14	7	16	-5	7744	4	2
COc1ccc(C)cc1N(CC(=O)Nc1cccnc1)S(=O)(=O)c1ccccc1	8.0	1	-1	-22	4299	-4	3
CCCCC(=O)Nc1ccc2c(c1)C(=O)NC2=O	3.7	-8	1	-20	5146	-11	-1
Cc1ccccc1NC(=O)/C(=C\c1cccs1)NC(=O)c1ccco1	0.5	2	2	-2	23554*	-2	-1
Cc1noc(C)c1C(=O)N1CCC2(CC1)OCCO2	5.1	9	5	-35	20724*	5	10
Cc1c(N(C(=O)CNC(=O)c2ccccc2)C2(C(=O)NC3CCCCC3)CCCCC2)c(=O)n(-c2ccccc2)n1C	-3.0	-9	-4	-39	3861	-4	22
COC(=O)c1ccccc1NC(=O)Cn1cc2c(n1)CCC(C)C2 (stereo not drawn)	1.5	·	·	-13	5547	3	5
CCOC(=O)C1CCCN(Cc2nc(N)nc(Nc3ccccc3)n2)C1 (stereo not drawn)	16	-8	-4	-35	4380	11	2
CCOc1ccc(C(C)(O)CN2CCOCC2)cc1 (stereo not drawn)	-2.2	-5	-14	5	3372	-1	-8
COc1cccc(C2CC(c3ccc(Cl)cc3Cl)Nc3nc(N)nn32)c1 (stereo not drawn)	3.8	·	·	8	5200	2	10
CCOC(=O)c1c(C)oc2c(CC(=O)c3ccccc3)c(Cl)c(O)c(O)c12	16	6	-1	-51	7813	10	-3
CC(Nc1nc(-c2ccccc2F)nc2ccccc12)c1ccccc1 (stereo not drawn)	-15	-5	1	-10	3724	16	7
COc1ccc(-c2csc(Nc3cccc(C)n3)n2)cc1C	-5.5	5	-4	-120	4443	3	-6
CCOc1ccc(CCNC(=O)CCC(=O)N2CCSc3ccccc32)cc1OCC	1.0	·	·	-9	5914	4	-1
CNC(=S)NCCC(c1ccccc1)c1ccccc1	-3.7	13	11	13	2533	36	0
CN1CCCC(OC(=O)c2ccccc2F)C1 (stereo not drawn)	-3.6	-1	17	11	4645	1	-10
Cc1ccc(F)cc1NC(=O)c1ccc2c(c1)OCO2	3.6	8	9	-49	9760	3	·
Cc1n[nH]c(=S)n1/N=C/c1ccc(OCc2ccc(Cl)cc2Cl)cc1	·	·	·	-56	2422	·	4
COC(=O)C1=C(C)N(C)C(C)=C(C(=O)OC)C1c1cccc(Br)c1	0.1	·	·	-18	6143	4	-1
CNC(=S)Nc1ccc(C)cc1	3.7	8	-4	-22	2153	-1	7
O=C(N/N=C/c1c(O)n(C2CC2)c(=S)[nH]c1=O)c1ccccc1Cl	1.8	3	5	-6	5390	0	7
O=C(CC1Sc2ccccc2NC1=O)OCC(=O)N1CCc2ccccc21 (stereo not drawn)	4.6	1	12	-29	3836	5	-6
CCOC(=O)[C@@H]1[C@H]2COc3ccccc3[C@@H]2N2C(=O)N(c3ccccc3)C(=O)[C@]12C	·	·	·	-11	3952	·	6
Nc1c(N2CCCCC2)c2ccccc2oc1=O	2.1	0	5	-13	2241	5	11
COCCCNc1nc(-c2ccc(Cl)cc2)nc2ccccc12	-13	2	10	-8	4104	0	-6
COC(=O)c1cc2ccccc2c(-c2c(OC)c(C(=O)OC)cc3ccccc23)c1OC	-5.1	3	-2	-7	6804	14	-4
COC(=O)c1c(C)nc(C)c(C(=O)OC)c1-c1ccc(OC)c(OC)c1	0.0	7	10	-18	3643	3	0
CCCC(=O)Nc1nnc(SCC(=O)NCc2cccs2)s1	1.4	7	12	-15	3415	4	-3
CC1CC(C)CN(C(=S)NC2CCCCC2)C1 (stereo not drawn)	3.6	10	4	-19	2474	3	2
CC(=NNS(=O)(=O)c1ccc(C(C)C)cc1)c1ccncc1	2.7	15	3	·	·	1	·
Cc1ccc(CNC(=O)CCc2c(C)nn(-c3ccc(N4CCOCC4)nn3)c2C)cc1	-1.0	-2	5	-5	5365	3	6
O=C(COc1ccccc1Br)NC1CC1	2.2	4	-6	-19	5106	2	-4
C#CCOCCOCCOCCNc1nc(N2CCN(C(=O)[C@H](CCC(=O)O)n3cc(CN)nn3)CC2)nc(N2CCN(C(=O)[C@H](CCC(=O)O)n3cc(CN)nn3)CC2)n1	-0.7	0	8	-1	3594	4	·
CC(C)C(=O)Nc1nnc(SCC(=O)N2c3ccccc3CC2C)s1 (stereo not drawn)	2.7	11	12	-17	3289	20	-1
CSc1ccc(C=NNc2ccc(S(=O)(=O)Nc3ccccc3C(=O)O)cc2[N+](=O)[O-])cc1	1.7	10	10	-15	3412	40	·
Cc1cc(N2CCOCC2)nc2ccc(NC(=O)CCC(=O)N3CCCCC3)cc12	2.3	7	13	-38	23643*	-1	-5
CCOc1cc2[nH]c(=S)n(C3CC3)c(=O)c2cc1OCC	21	-10	2	7	3956	9	3
CC(C)=CCCC(C)CCO (stereo not drawn)	7.1	·	·	5	5627	10	·
O=C(C(=O)N1CCOCC1)c1cn(Cc2ccccc2F)c2ccccc12	-1.5	-1	5	-15	5104	2	6
COc1cccc(CC2(CO)CCCN(Cc3cn(C)c4ccccc34)C2)c1 (stereo not drawn)	-2.2	-8	0	-10	2018	-1	3
CCN(c1ccccc1)S(=O)(=O)c1ccc(NC(=O)c2ccco2)cc1	-5.6	-4	-2	-16	4163	9	-4
Cc1nn(-c2cc(N3CCCC3)ccc2[N+](=O)[O-])c(=O)c2ccccc12	-2.8	11	-3	0	·	-2	1
Brc1ccc(OCc2ccccc2)c(CNCC2CCCO2)c1 (stereo not drawn)	5.1	-3	6	-13	4362	23	1
CCOC(=O)C1C(=O)C=C(c2ccc(C)cc2)CC1c1ccc([N+](=O)[O-])cc1 (stereo not drawn)	-1.0	11	12	-27	1957	-9	·
Cc1cc(C)nc(SCC(=O)Nc2ncc(Cc3ccc(Cl)c(Cl)c3)s2)n1	·	·	·	-11	2124	·	-8
CC(C)OCCCNC(=O)c1ccc(C2SCC(=O)N2Cc2ccco2)cc1 (stereo not drawn)	5.2	0	7	-10	4143	4	-8
Cc1ccc(C)n1-c1ccc(-n2cnnn2)cc1	-0.4	-6	-7	-5	16233*	-5	-6
Cc1nc(NC(=O)COC(=O)c2ccc(S(=O)(=O)N3CCc4ccccc4C3)cc2)c(Cl)cc1Cl	1.4	-2	-1	-17	2188	12	-8
CCc1c(C)sc2nc(C(C)C)nc(SCC(=O)N3CCc4ccccc4C3)c12	-3.7	2	-2	·	·	1	1
CCOC(=O)CC1(NC(=O)c2cc(COc3cccc(OC)c3)on2)CCCCC1	0.2	4	1	-13	5643	5	-1
COc1ccc(N2C(=O)/C(=C/c3cccnc3)NC2=S)cc1	·	·	·	-26	2464	·	-20
CC(C)Cc1nnc(NC(=O)c2ccncc2)s1	11	·	·	-8	3648	8	5
O=C(Cn1cc([N+](=O)[O-])cn1)Nc1cccnc1	1.8	-2	9	-23	3863	0	-10
O=C(CSc1nc2ccc(Cl)cc2[nH]1)NC1CCCc2ccccc21 (stereo not drawn)	0.7	1	3	-8	2430	-19	8
O=C(Cn1cnc2ccccc21)NN=Cc1ccc([N+](=O)[O-])cc1	1.0	-6	6	·	·	1	·
NC(=O)CSc1nnc(-c2cnccn2)n1-c1ccccc1	1.7	8	0	-5	2835	2	3
COC(=O)C1=C(c2ccc(C(C)=O)cc2)CC2CCC1N2C(=O)N1CCC(O)(c2ccc(Cl)cc2)CC1 (stereo not drawn)	4.0	2	2	·	·	-9	·
The list continues.
SMILES	Sa RN4220 lethal	Mtb hypoxia inh	Mtb hypoxia inh growth	PrP UTR inh	Bead autofluor	ugtP null kill	BJeLR viability
CCC(NC(=O)c1cc(COc2c(F)cccc2F)on1)c1ccncc1 (stereo not drawn)	2.5	-10	-1	3	5692	0	2
Cc1ccccc1-n1nc2c(c1NC(=O)CCCl)CSC2	1.3	11	1	-16	3058	1	-1
CC1CN(C2CCN(C(=O)c3ccccc3Cl)CC2)CC(C)O1 (stereo not drawn)	1.4	·	·	-16	2230	-1	-6
O=C(/C=C/c1cccc([N+](=O)[O-])c1)NCCSCc1ccccc1Cl	-2.1	-1	2	-14	1897	-13	-3
CC(C)Sc1ncnc2c1oc1ccccc12	8.1	-3	6	-33	23211*	-16	9
CC(C)CCNc1nc(N)c([N+](=O)[O-])c(NCC2CCCO2)n1 (stereo not drawn)	-3.8	-17	-5	-15	2429	-4	6
COc1ccccc1N1CCN(C(c2cccs2)C(C)NC(=O)c2ccco2)CC1 (stereo not drawn)	2.5	12	8	-9	3928	-2	-16
CN(C)c1ccc(C(C#N)c2ccc(Cl)cc2)nn1 (stereo not drawn)	-3.7	-9	-2	-6	3738	-4	1
C[C@H](NC(=O)N1CCn2c1nc1ccccc12)C(=O)NCc1ccc2c(c1)OCO2	3.9	9	-4	4	5109	-1	-3
COC(=O)c1ccc(CNC(=O)c2coc3ccccc3c2=O)cc1	1.5	11	1	-32	4023	2	3
CCN(CC)c1ccc(C=C2C(=O)OC(C)(C(C)(C)C)OC2=O)cc1 (stereo not drawn)	3.8	11	-3	-11	2530	0	-8
O=C1N=C(N2CCCC2C(=O)O)S/C1=C\c1ccco1 (stereo not drawn)	·	·	·	-8	4925	·	-5

Compound profiles (already shown). Order of screens: Sa RN4220 lethal | Mtb hypoxia inh | Mtb hypoxia inh growth | PrP UTR inh | Bead autofluor | ugtP null kill | BJeLR viability
Listed for CN(C)c1ccc(C(C#N)c2ccc(Cl)cc2)nn1 (stereo not drawn) : -3.7 | -9 | -2 | -6 | 3738 | -4 | 1
Listed for CCN(CC)c1ccc(C=C2C(=O)OC(C)(C(C)(C)C)OC2=O)cc1 (stereo not drawn) : 3.8 | 11 | -3 | -11 | 2530 | 0 | -8
Listed for CC(C)Sc1ncnc2c1oc1ccccc12 : 8.1 | -3 | 6 | -33 | 23211* | -16 | 9
Listed for CC1CN(C2CCN(C(=O)c3ccccc3Cl)CC2)CC(C)O1 (stereo not drawn) : 1.4 | · | · | -16 | 2230 | -1 | -6

Additional records follow:
SMILES	Sa RN4220 lethal	Mtb hypoxia inh	Mtb hypoxia inh growth	PrP UTR inh	Bead autofluor	ugtP null kill	BJeLR viability
COCCCNC(=O)CSc1nc2ccccc2c(=O)n1CCC(=O)NCCc1ccc(OC)c(OC)c1	1.1	7	2	-23	3887	8	1
O=C(NC(=S)Nc1ccc(N2CCOCC2)c(Cl)c1)c1cccs1	7.8	-3	8	-28	2176	-13	-7
C=CCNC(=O)CCCOc1cccc(C)c1	5.0	3	10	-20	10212	7	6
COc1ccc(C(=O)NCc2nnc(SCC(=O)N3CCc4ccccc43)n2CCc2ccccc2)cc1	5.7	-4	4	-6	2072	-1	5
CCn1c(CSCc2ccc(F)cc2)nnc1SCC(=O)NCc1ccccc1	·	·	·	-32	2926	·	-2
Cc1ccccc1-c1nc2ccc(Cl)cc2c(=O)n1O	11	17	-6	·	4203	12	8
C=CCOc1ccccc1CNCc1ccc(F)cc1	3.6	18	2	-10	?	8	10
COc1ccc(-c2cc(C(F)(F)F)n3nc(C(=O)NCc4ccco4)cc3n2)cc1	-0.6	-6	-2	6	8728	-3	6
Cc1nc(NCc2cccnc2)c2c3c(sc2n1)CCCC3	-2.6	-8	3	-16	4816	-1	4
Cc1cccc(C(CC(=O)O)NC(=O)C(F)(F)F)c1 (stereo not drawn)	6.6	7	-2	-22	4976	14	-2
N#CCn1c(CN2CCCC2)nc2ccccc2c1=O	2.4	-6	11	-1	3812	0	-12
Oc1ccc(CC2CNCCN2CCCCC2CCCCC2)cc1 (stereo not drawn)	-5.7&-6.3	11&16	8&15	·	·	0&1	·
CC(C)(C)OC(=O)NCCCC[C@H](NC(=O)c1nc[nH]c1C(=O)N1CCN(c2ccccc2)CC1)C(=O)OC(C)(C)C	·	·	·	-31	2968	·	7

Reformatted as a markdown table: entries from further up.
| SMILES | Sa RN4220 lethal | Mtb hypoxia inh | Mtb hypoxia inh growth | PrP UTR inh | Bead autofluor | ugtP null kill | BJeLR viability |
| --- | --- | --- | --- | --- | --- | --- | --- |
| C=CCOc1ccccc1CNCc1ccc(F)cc1 | 3.6 | 18 | 2 | -10 | ? | 8 | 10 |
| Cc1ccccc1-c1nc2ccc(Cl)cc2c(=O)n1O | 11 | 17 | -6 | · | 4203 | 12 | 8 |
| Cc1nc(NCc2cccnc2)c2c3c(sc2n1)CCCC3 | -2.6 | -8 | 3 | -16 | 4816 | -1 | 4 |
